HSV replic up: enhancers of HSV replication in host cells, fold increase, host cell viability | maximum fold increase | HSV replication augmentation in cells | actives 0.005% (n = 220,000);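 active = peak rise of 1.5-fold or more in the series; tested in PC3 cells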;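 also: first round at 10 µM; read as green reporter fluorescence; hits show the peak of a series up to 25 µM; 1 = signal of infected wells without compound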
GALR2 agonist: GALR2 receptor agonists, primary screen, cell-based; actives 0.48% (n = 140,000); activation, %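 (tested at 5 µM)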; Galanin receptor type 2 (Homo sapiens), O43603; GALR2-expressing cells, agonist activation read-out; AID 803, 2007;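 active = above mean plus 3 SD of all compounds, about 5% in these data, not always enough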;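 also: 0% = vehicle buffer wells and 100% = reference agonist at full effect; tested in CHO reporter cells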
INS promoter inh: inhibitors of insulin promoter-driven GFP, primary screen, imaging, TRM-6 cells (human fetal islet line), eGFP reporter, cell count; reporter expression induced with tamoxifen; inhibition, % at 2 µM; actives 0.9% (n = 130,000);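 active = inhibition above the mean plus 3 SD, with well images judged a real hit on visual review, cut at about 60% in these data, passing the limit was not always enough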
PKD1 kinase inh: inhibitors of human PKD1 kinase, biochemical, fluorescence polarization; Serine/threonine-protein kinase D1 (Homo sapiens), Q15139; PKD1 kinase fluorescence polarization assay; inhibition, %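 (about 10 µM by stock and volumes)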; actives 0.056% (n = 200,000);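 active = inhibition of 50% or more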;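 also: controls were vehicle for no effect and a reference inhibitor for full effect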
Target sequence (Q15139 whole entry, looked up): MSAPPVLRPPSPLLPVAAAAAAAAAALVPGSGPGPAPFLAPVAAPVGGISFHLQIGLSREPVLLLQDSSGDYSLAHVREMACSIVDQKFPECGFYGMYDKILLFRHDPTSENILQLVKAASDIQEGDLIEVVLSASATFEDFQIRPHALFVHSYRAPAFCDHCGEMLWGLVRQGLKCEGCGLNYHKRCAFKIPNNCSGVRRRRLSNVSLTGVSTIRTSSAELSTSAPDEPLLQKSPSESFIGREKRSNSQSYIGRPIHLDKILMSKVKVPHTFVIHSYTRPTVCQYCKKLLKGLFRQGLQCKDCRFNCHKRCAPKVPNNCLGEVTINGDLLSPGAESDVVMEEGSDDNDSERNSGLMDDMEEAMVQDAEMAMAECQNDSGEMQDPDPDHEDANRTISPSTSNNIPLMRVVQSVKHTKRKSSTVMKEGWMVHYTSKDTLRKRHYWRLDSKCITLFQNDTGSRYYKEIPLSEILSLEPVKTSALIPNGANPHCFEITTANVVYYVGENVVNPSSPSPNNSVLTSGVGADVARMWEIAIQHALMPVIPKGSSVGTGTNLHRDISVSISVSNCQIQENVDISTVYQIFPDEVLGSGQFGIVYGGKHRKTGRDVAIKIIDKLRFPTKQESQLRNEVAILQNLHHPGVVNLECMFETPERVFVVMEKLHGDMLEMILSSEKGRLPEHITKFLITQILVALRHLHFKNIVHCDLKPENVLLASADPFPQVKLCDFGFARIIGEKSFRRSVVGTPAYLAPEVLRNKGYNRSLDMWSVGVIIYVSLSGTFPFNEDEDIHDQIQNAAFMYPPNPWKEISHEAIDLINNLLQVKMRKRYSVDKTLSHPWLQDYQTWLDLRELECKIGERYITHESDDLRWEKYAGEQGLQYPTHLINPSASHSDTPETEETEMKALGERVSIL
RGS16-Gao: modulators of RGS16 binding to Galphao, primary screen, biochemical, human proteins, multiplexed bead flow cytometry. bead-based flow cytometry RGS16-Galphao binding, fluorescence; actives lie on both sides. binding response (% of control), % at 10 µM. actives 0.38% (n = 220,000);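 active = below 25% or above 175%, edge rows of some plates excepted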;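 also: Galphao activated by GDP with aluminum fluoride before binding; 100% = wells without compound and 0% = beads without RGS; some results beyond the cut were filed as inactive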
INS promoter inh cell count: further read-out of INS promoter inh, marked with its call; normalized cell count, %; measured here: cell count, toxicity; reference of the scale not given here;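 cells exposed to compound for 48 h; stained nuclei by imaging scaled within each plate; lower means fewer cells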
HSV replic up primary fold: also measured in HSV replic up; calls as there; fold increase; compound at 10 µM; measured here: primary screen fold increase 10 uM; tested in PC3 cells;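 GFP signal in the first replicate; 1 = infected wells without compound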
An asterisk follows results filed as active. The order is random; 1.3% or so of the library scored in one or more.

Cn1c(NC(=O)c2ccco2)c(-c2ccccc2)c(=O)c2ccccc21 was read as HSV replic up inactive, GALR2 agonist -1.8, INS promoter inh 53.9, PKD1 kinase inh 0.4, RGS16-Gao 98.7, INS promoter inh cell count 73.4 and HSV replic up primary fold 0.9.
`CCOC(=O)c1c(-c2ccccc2)csc1NC(=O)c1nn(CC)cc1Br` gave HSV replic up inactive, GALR2 agonist -0.7, INS promoter inh 50.0, PKD1 kinase inh -0.5, RGS16-Gao 105.7, INS promoter inh cell count 146.2 and HSV replic up primary fold 0.92.
COC(=O)c1ccc(NC(=S)NC(=O)c2c(Cl)cnn2C)cc1 was read as HSV replic up inactive, GALR2 agonist 0.3, PKD1 kinase inh -2.4, RGS16-Gao 104.5 and HSV replic up primary fold 1.13.
`COc1ccc(CC(=O)Nc2ccc(-c3noc(-c4ccccc4OC)n3)cc2)cc1` gave HSV replic up inactive, GALR2 agonist 1.5, INS promoter inh -26.7, PKD1 kinase inh -6.5, RGS16-Gao 32.6, INS promoter inh cell count 123.1 and HSV replic up primary fold 0.83.
For CCOC(=O)C1NN=C(C(=O)c2ccccc2)C1c1ccc(OC)cc1 (centres undefined) the results were HSV replic up inactive, INS promoter inh 64.7, PKD1 kinase inh -3.4, RGS16-Gao 102.6, INS promoter inh cell count 74.2 and HSV replic up primary fold 0.99.
CCC(CC)C(=O)Nc1cccc(SC)c1 was read as HSV replic up inactive, PKD1 kinase inh 3.6, RGS16-Gao 50.4 and HSV replic up primary fold 1.05.
Cc1ccc(C)c(C2=CSC3=NCCN23)c1 was read as HSV replic up inactive, GALR2 agonist -1.4, PKD1 kinase inh -7.8, RGS16-Gao 61.1 and HSV replic up primary fold 0.89.
For O=C(NC1CCCC1)C(c1cc2c(cc1[N+](=O)[O-])OCO2)N1CCCC1 (centres undefined) the results were HSV replic up inactive, PKD1 kinase inh -0.8, RGS16-Gao 105.1 and HSV replic up primary fold 0.99.
For CCc1nnc(NC(=O)OCc2ccccc2)s1 the results were HSV replic up inactive, GALR2 agonist -1.1, INS promoter inh 6.2, PKD1 kinase inh 1.7, RGS16-Gao 81.7, INS promoter inh cell count 164.9 and HSV replic up primary fold 0.93.
`CC1(C)NC(=O)N(CCOCCOc2ccccc2)C1=O` gave GALR2 agonist -1.1, INS promoter inh 17.2, PKD1 kinase inh 4.4, RGS16-Gao 100.1 and INS promoter inh cell count 67.4.

Overlap with the part before: 4 compounds; new compounds follow.
Cc1ccc(C)c(C2=CSC3=NCCN23)c1 was read as HSV replic up inactive, GALR2 agonist -1.4, PKD1 kinase inh -7.8, RGS16-Gao 61.1 and HSV replic up primary fold 0.89.
For O=C(NC1CCCC1)C(c1cc2c(cc1[N+](=O)[O-])OCO2)N1CCCC1 (centres undefined) the results were HSV replic up inactive, PKD1 kinase inh -0.8, RGS16-Gao 105.1 and HSV replic up primary fold 0.99.
For CCc1nnc(NC(=O)OCc2ccccc2)s1 the results were HSV replic up inactive, GALR2 agonist -1.1, INS promoter inh 6.2, PKD1 kinase inh 1.7, RGS16-Gao 81.7, INS promoter inh cell count 164.9 and HSV replic up primary fold 0.93.
`CC1(C)NC(=O)N(CCOCCOc2ccccc2)C1=O` gave GALR2 agonist -1.1, INS promoter inh 17.2, PKD1 kinase inh 4.4, RGS16-Gao 100.1 and INS promoter inh cell count 67.4.
Cc1cccc(-n2nnnc2SCC(=O)c2cc(C)n(Cc3ccco3)c2C)c1 was read as HSV replic up inactive, GALR2 agonist -0.5, INS promoter inh 15.4, PKD1 kinase inh 5.9, RGS16-Gao 135.5, INS promoter inh cell count 96.4 and HSV replic up primary fold 0.94.
`COc1ccc(C)cc1NC(=O)CN(Cc1nnc(-c2ccc(Cl)cc2)o1)C1CCCC1` gave HSV replic up inactive, GALR2 agonist 2.0, INS promoter inh 8.3, PKD1 kinase inh -2.7, RGS16-Gao 104.2, INS promoter inh cell count 91.1 and HSV replic up primary fold 0.92.
Screening Cc1ccc(/C=N/n2c(-c3cccc(Cl)c3)n[nH]c2=S)o1 returned HSV replic up inactive, RGS16-Gao 103.5 and HSV replic up primary fold 1.01.
CCCC(=O)c1ccc(N2CCCCC2)c(F)c1 was read as HSV replic up inactive, INS promoter inh 35.0, PKD1 kinase inh 3.8, RGS16-Gao 93.6, INS promoter inh cell count 142.6 and HSV replic up primary fold 0.98.
Screening COc1ccc(-c2ccccc2)cc1NCc1ccccc1C returned HSV replic up inactive, GALR2 agonist 0.2, INS promoter inh -6.7, PKD1 kinase inh -12.5, RGS16-Gao 99.9, INS promoter inh cell count 53.1 and HSV replic up primary fold 0.96.
Screening O=C(Cn1c(=O)oc2cc(S(=O)(=O)N3CCCC3)ccc21)Nc1ccccc1Br returned HSV replic up inactive, RGS16-Gao 95.9 and HSV replic up primary fold 0.94.
`Cc1ccc(NC(=O)CSc2nc3[nH]ncc3c(=O)[nH]2)cc1` gave HSV replic up inactive, PKD1 kinase inh 2.0, RGS16-Gao 94.2 and HSV replic up primary fold 0.98.
For Cc1cc(N2CCOCC2)ccc1/C=C1\NC(=O)N(Cc2ccccc2)C1=O the results were HSV replic up inactive, PKD1 kinase inh -6.1, RGS16-Gao 95.8 and HSV replic up primary fold 0.96.
Cc1c(O)c(=O)ccn1Cc1ccccc1 was read as HSV replic up inactive, GALR2 agonist -1.2, INS promoter inh -257.1, PKD1 kinase inh 7.8, RGS16-Gao 93.9, INS promoter inh cell count 52.6 and HSV replic up primary fold 0.85.
`CCOC(=O)c1c(NC(=O)CN2CCOCC2)sc2c1CCCC2` gave HSV replic up inactive, GALR2 agonist -0.3, INS promoter inh 39.1, PKD1 kinase inh -4.5, RGS16-Gao 101.6, INS promoter inh cell count 108.1 and HSV replic up primary fold 0.99.
Screening CCN(CC)CCCNC(=O)c1ccccc1C returned HSV replic up inactive, GALR2 agonist -0.7, INS promoter inh -41.7, PKD1 kinase inh 1.6, RGS16-Gao 112.8, INS promoter inh cell count 171.4 and HSV replic up primary fold 1.03.
`C/C(=C\c1ccccc1)C1NC(=O)c2c(sc3c2CCCC3)N1` (centres undefined) gave HSV replic up inactive, GALR2 agonist -1.1, INS promoter inh 53.3, PKD1 kinase inh -1.1, RGS16-Gao 95.5, INS promoter inh cell count 47.6 and HSV replic up primary fold 0.95.
`COc1ccc(C(=O)N/C(=C/c2cccnc2)C(=O)N2CCOCC2)cc1OC` gave HSV replic up inactive, RGS16-Gao 80.9 and HSV replic up primary fold 1.02.
For CCOC(=O)Cc1csc(NC(=O)CSc2nnc(-c3ccncc3)o2)n1 the results were HSV replic up inactive, PKD1 kinase inh -4.8, RGS16-Gao 102.4 and HSV replic up primary fold 1.21.
Screening CCOC(=O)c1sc(NC(=O)c2ccco2)nc1C returned HSV replic up inactive, RGS16-Gao 103.5 and HSV replic up primary fold 0.88.
Screening COc1ccc(COCC(O)CN(Cc2ccco2)Cc2ccccc2O)cc1 (centres undefined) returned HSV replic up inactive, GALR2 agonist -0.5, INS promoter inh -8.1, PKD1 kinase inh -6.3, RGS16-Gao 102.2, INS promoter inh cell count 59.4 and HSV replic up primary fold 0.99.
Cc1cc2c(OCC(O)CN3CCCCC3)cccc2[nH]1 (centres undefined) was read as HSV replic up inactive, INS promoter inh 0.0, PKD1 kinase inh -7.7, RGS16-Gao 100.2, INS promoter inh cell count 114.8 and HSV replic up primary fold 0.89.
Screening O=C(NCCN1CCOCC1)c1ccc(N2CCCC2)c([N+](=O)[O-])c1 returned HSV replic up inactive, PKD1 kinase inh -2.2, RGS16-Gao 100.6 and HSV replic up primary fold 1.04.
`O=C(Oc1ccc2cccc(OC(=O)N3CCOCC3)c2c1)N1CCOCC1` gave HSV replic up inactive, GALR2 agonist 1.1, INS promoter inh -20.0, PKD1 kinase inh -3.8, RGS16-Gao 92.9, INS promoter inh cell count 61.5 and HSV replic up primary fold 0.97.
Screening CN(CC(=O)Nc1cccc2c1CCCC2)S(=O)(=O)c1ccccc1 returned HSV replic up inactive, GALR2 agonist -3.8, INS promoter inh -3.2, PKD1 kinase inh -12.3, RGS16-Gao 103.7, INS promoter inh cell count 69.7 and HSV replic up primary fold 0.91.
For Nn1c(SCC(=O)Nc2ccc3c(c2)OCO3)nnc1-c1ccncc1 the results were GALR2 agonist -0.6, INS promoter inh 1.3, PKD1 kinase inh -12.2, RGS16-Gao 97.9 and INS promoter inh cell count 82.5.
For CC(=O)Nc1sc2c(c1C#N)CCC(C)C2 (centres undefined) the results were HSV replic up inactive, PKD1 kinase inh -11.9, RGS16-Gao 104.3 and HSV replic up primary fold 0.85.
Screening O=C1CCCc2ccccc2N1Cc1cccc(Cl)c1 returned HSV replic up inactive, GALR2 agonist -3.3, INS promoter inh 19.4, PKD1 kinase inh 1.8, RGS16-Gao 96.9, INS promoter inh cell count 109.0 and HSV replic up primary fold 1.04.
For CCOC(=O)c1cnn(CC2CCCCC2)c1N the results were HSV replic up inactive, GALR2 agonist -1.1, INS promoter inh -10.7, PKD1 kinase inh -9.6, RGS16-Gao 101.3, INS promoter inh cell count 113.9 and HSV replic up primary fold 0.85.
Screening S=C(NCCN1CCOCC1)Nc1ccc(Cl)c(Cl)c1 returned HSV replic up inactive, INS promoter inh -64.7, PKD1 kinase inh -6.8, RGS16-Gao 98.2, INS promoter inh cell count 106.9 and HSV replic up primary fold 0.92.
Screening O=C(NC1CCCCC1)N1CCCC(c2nc(-c3ccc(S(=O)(=O)N4CCCC4)cc3)no2)C1 (centres undefined) returned HSV replic up inactive, GALR2 agonist -0.5, PKD1 kinase inh -6.7, RGS16-Gao 102.5 and HSV replic up primary fold 0.79.
`O=S(=O)(Nc1ccc2c(c1)CCC2)c1cccs1` gave HSV replic up inactive, GALR2 agonist -0.3, PKD1 kinase inh 0.3, RGS16-Gao 96.6 and HSV replic up primary fold 0.8.
Screening O=C(CSc1ccc(-c2ccccn2)nn1)NC1CCCCC1 returned HSV replic up inactive, PKD1 kinase inh 0.5, RGS16-Gao 102.8 and HSV replic up primary fold 0.96.
For CC(C)OCCCn1c(=S)[nH]c2cc3c(cc2c1=O)OCO3 the results were HSV replic up inactive, GALR2 agonist -1.3, INS promoter inh 0.0, PKD1 kinase inh -6.6, RGS16-Gao 98.7, INS promoter inh cell count 151.5 and HSV replic up primary fold 0.89.
Screening NNC(=O)C1CCCN1S(=O)(=O)c1ccc(Cl)cc1 (centres undefined) returned HSV replic up inactive, PKD1 kinase inh -3.7, RGS16-Gao 115.4 and HSV replic up primary fold 1.01.
`COc1ccc(NC(=O)N(CCCN2CCOCC2)Cc2cccnc2)c(OC)c1` gave HSV replic up inactive, GALR2 agonist -1.0, PKD1 kinase inh -5.7 and HSV replic up primary fold 0.82.
Cc1ccc(CNC(=O)c2ccc([N+](=O)[O-])o2)cc1 was read as HSV replic up inactive, GALR2 agonist -2.9, PKD1 kinase inh -3.1, RGS16-Gao 103.8 and HSV replic up primary fold 0.873.
`O=C(CC12CC3CC(CC(C3)C1)C2)N/N=C/c1ccncc1` gave HSV replic up inactive, GALR2 agonist -0.5, INS promoter inh 17.9, PKD1 kinase inh 2.0, RGS16-Gao 100.7, INS promoter inh cell count 117.6 and HSV replic up primary fold 1.
For Cc1ccc(NC(=O)c2c(C)noc2C)cc1 the results were HSV replic up inactive, GALR2 agonist -0.7, PKD1 kinase inh -9.4, RGS16-Gao 101.9 and HSV replic up primary fold 0.91.
Screening Cc1ccc(S(=O)(=O)CNC(=O)c2ccccc2)cc1 returned HSV replic up inactive, GALR2 agonist -2.7, INS promoter inh -41.9, PKD1 kinase inh -6.3, RGS16-Gao 112.7, INS promoter inh cell count 48.9 and HSV replic up primary fold 0.937.
For CCCCn1c(SCC(=O)c2ccc3c(c2)OCCO3)nnc1-c1ccco1 the results were HSV replic up inactive, GALR2 agonist -0.1, INS promoter inh 47.2, PKD1 kinase inh -4.3, RGS16-Gao 93.9, INS promoter inh cell count 46.4 and HSV replic up primary fold 1.03.
For COC(=O)c1ccc(N2CCN(CC(=O)c3ccc(-c4ccccc4)cc3)CC2)c([N+](=O)[O-])c1 the results were GALR2 agonist -1.6, PKD1 kinase inh -5.3 and RGS16-Gao 101.4.
CC(C)(C)c1ccc(/C=C/C(=O)O)s1 was read as INS promoter inh 64.3, PKD1 kinase inh -3.6, RGS16-Gao 103.2 and INS promoter inh cell count 185.1.
For Cc1cc(C)cc(C(=O)NC2C(=O)N3C(C(=O)O)=C(CSc4nnc(C)s4)CSC23)c1 (centres undefined) the results were HSV replic up inactive, INS promoter inh -17.6, PKD1 kinase inh -0.9, RGS16-Gao 94.8, INS promoter inh cell count 135.7 and HSV replic up primary fold 0.99.

Assay outcomes deposited in PubChem by several laboratories.
